Assay outcomes from PubChem BioAssay.
Rango-impB inh: Rango-importin beta binding inhibition; AID 540263; Q14974; 0.031% of 340,000 active; Potency, µM (doses to about 92.2 µM), inactives show at the top dose inhibition of complex formation; Rango CFP/YFP FRET sensor + importin beta, 45 min; active = rising FRET ratio curve, often small or poorly fitted; inconclusive = mostly compound fluorescence or quenching in the first reads; inactive = flat curves in all reads;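 further: potency means the concentration at half of the fitted maximal effect; 0% = DMSO wells and 100% = buffer wells lacking importin beta; nearly all actives have a fitted effect of over 15% in size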
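FRET biosensor Rango (snurportin 1 IBB between N-terminal EYFP and C-terminal Cerulean), 50 nM in PBS/1 mM DTT/0.02% Tween-20/0.1% BSA, preincubated 5 min RT with compound; 0.125 microM importin beta added, 45 min RT, CFP/YFP FRET ratio read.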
GLA inh pH 4.5: alpha-galactosidase A (human) inhibition, pH 4.5. purified enzyme, 4-MU-alpha-Gal fluorescence, pH 4.5. P06280. 230,000 tested, under 10 active. activity change, negative = inhibition, % at 105 µM; inconclusive = small, poorly fitted or top-dose-only inhibition, or a rising curve; inactive = flat fitted curve, though single readings scatter; no compound was filed as active;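 further: 0% = full activity with enzyme and -100% = basal without enzyme; dose as in the result columns while the protocol names 77 µM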
Target sequence (P06280 whole entry, looked up): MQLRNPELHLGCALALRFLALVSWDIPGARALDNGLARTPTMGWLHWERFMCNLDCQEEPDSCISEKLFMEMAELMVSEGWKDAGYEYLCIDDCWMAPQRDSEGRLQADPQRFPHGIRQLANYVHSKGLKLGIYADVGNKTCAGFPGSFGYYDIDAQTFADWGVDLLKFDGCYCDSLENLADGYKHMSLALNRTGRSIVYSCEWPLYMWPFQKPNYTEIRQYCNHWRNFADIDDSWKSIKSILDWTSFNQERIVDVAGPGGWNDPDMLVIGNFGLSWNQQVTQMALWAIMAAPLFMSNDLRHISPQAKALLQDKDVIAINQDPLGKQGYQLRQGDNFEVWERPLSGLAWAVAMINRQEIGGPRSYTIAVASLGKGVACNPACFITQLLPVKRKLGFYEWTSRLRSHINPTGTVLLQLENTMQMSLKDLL
miR-21 FLuc: raises the signal of a miR-21 reporter; Potency, µM (series often up to 38.3 µM), inactives show top-dose reporter change, positive = more light; AID 2288; 340,000 tested, under 10 active; HeLa miR-21 FLuc reporter, luciferase, 48 h; active = well fitted rising curve with a large enough effect; inconclusive = small, poorly fitted or top-dose-only effect; inactive = no such curve, though single readings can be large or run the other way;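 further: % of control where 0% means no effect; miR-21 action dims this reporter so a rising signal means less miR-21 action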
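HeLa cells endogenously expressing miR-21, stably carrying CMV-driven firefly luciferase with a downstream miR-21 binding site, 2000 cells/well. Titrations up to approximately 40 uM, 48 hours; luciferase luminescence read.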
Rango release inh: inhibitors of RanGTP-induced Rango-importin beta complex dissociation; 0.071% of 340,000 active; Biochemical FRET Rango-importin beta, RanGTP-induced dissociation; Potency, µM (titrated, usually from 46.1 µM), for inactives: at the top dose activity change, negative = inhibition; O95149+P62826; active means falling FRET ratio curve, often poorly fitted, with flat reads before Ran was added; inconclusive means other falling curves, or compound fluorescence or quenching; inactive means flat or rising ratio curve;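 further: potency means the concentration at half of the fitted maximal effect; % of control where 0% means no effect; nearly all actives have a fitted effect of over 45% in size; -100% = wells without RanGTP and RCC1; the record marks most hits as doubtful in a second field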
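Rango/importin beta premix (0.1/0.25 uM final), PBS + 1 mM DTT + 0.02% Tween-20 + 0.1% BSA; cpd 5 min RT; FRET pre-read; + RanGTP-RCC1 (0.6 uM Ran, 2 mM GTP, 0.2 uM RCC1); 45 min RT; FRET post-read, ex 430, em 486/530 nm.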
* = called active by the depositor; ? = inconclusive; . = not tested or not shown; & = joins results of further samples; [ ] = another dose, or the depositor's remark. This is a subset; rates above refer to the full screens.

The opening two entries, ahead of the listing:
SMILES	Rango-impB inh	GLA inh pH 4.5	miR-21 FLuc	Rango release inh
CCSc1nnc(NC(=O)C(Cc2ccccc2)n2cccc2)s1 (configuration not stated)	-1.7%	9	-3%	-8%
CCn1c(SCC(=O)c2cccs2)nnc1-c1cccs1	-0.6%	3	-38%	-1%

Main list, from the first entry:
SMILES	Rango-impB inh	GLA inh pH 4.5	miR-21 FLuc	Rango release inh
CCSc1nnc(NC(=O)C(Cc2ccccc2)n2cccc2)s1 (configuration not stated)	-1.7%	9	-3%	-8%
CCn1c(SCC(=O)c2cccs2)nnc1-c1cccs1	-0.6%	3	-38%	-1%
CCN1CCN(c2ccc(NC(=O)c3ccc4c(c3)OCCO4)cc2C)CC1	-3.0%	.	.	9%
Cc1c(Br)cc(C(=O)O)c(C)c1C	1.9%	12	-2%	-12%
O=C(C1=C[C@H](c2csc3ccccc23)C[C@H](OCc2ccc(CO)cc2)O1)N1CCOCC1	0.5%	-3	0%	14%
Cc1cc(N/N=C\c2ccc(Br)cc2)nc(-n2nc(C)cc2C)n1	3.5%	-21	0%	14%
Cc1occc1-c1nnc(SCc2nnc(-c3ccc(Cl)cc3)o2)n1C	0.2%	1	-30%	9%
Cc1cc(C)nc(N/N=C/c2ccccc2)n1	-1.5%	.	-52%	4%
Cc1nc(SCC(=O)Nc2cccc(C(=O)O)c2)n[nH]1	-0.5%	.	-2%	0%
Cc1ccc(S(=O)(=O)N(Cc2n[nH]c(=S)n2-c2ccccc2)c2ccccc2)cc1	-1.9%	-2	2%	12%
CCc1nc2cccnc2n1-c1ccc(C(=O)O)cc1	?	.	0%	-7%
CC1CCc2nn(CC(=O)NCCCN3CCCC3=O)cc2C1 (configuration not stated)	-2.5%	2	-8%	1%
COc1ccc(Cn2c(=O)[nH]c3cc(C(=O)NC4CCN(Cc5ccccc5)CC4)ccc32)cc1	0.9%	-1	14%	-4%
CCOC(=O)/C(C#N)=C/c1cc2ccccc2nc1N1CCCCC1	5.2%	6	-10%	-3%
O=c1nc2ccc(Cl)cn2c2ccc(S(=O)(=O)N3CCOCC3)cc12	?	.	6%	?
COCCOC(=O)c1c(C)oc2ccc(NS(=O)(=O)c3ccccc3)cc12	-1.4%	-3	-6%	1%
C=C(C)c1cccc(C(C)(C)NC(=O)NC2CC(C)(C)NC(C)(C)C2)c1	0.9%	5	1%	22%
COc1ccc(CCN(CC(=O)NC2CCCC2)C(=O)Cn2nnc(-c3ccc(C)o3)n2)cc1OC	-3.4%	-7	-1%	3%
N#CCCn1c(=S)[nH]c2ccccc21	-0.9%	-7	4%	1%
Cn1c(CCNC(=O)c2ccco2)nc2cc(NC(=O)NC3CCCCC3)ccc21	0.5%	-1	-24%	1%
Cc1cc(C)cc(OCC(=O)N/N=C/c2ccc([N+](=O)[O-])o2)c1	4.6%	-6[21.1 µM]	26%	3%
COCCNC(=O)c1cc(-c2ccccc2)nn1CC1CC(c2cccc([N+](=O)[O-])c2)=NO1 (configuration not stated)	2.5%	.	.	38%
COc1ccc(-c2cc3c(=O)n(CC(=O)Nc4ccc(Cl)cc4)ncn3n2)cc1	-0.1%	.	-5%	4%
CCOC(=O)c1cc(NC(=O)N(CC)CC)c(C)nc1C	-2.5%	7	2%	8%
COCCNc1cc(C)c(C#N)c2nc3ccccc3n12	?	?	-4%	?
CCN(CC)CCNCC(O)(c1ccc(Cl)cc1)c1ccc(Cl)cc1	-2.6%	-10	4%	0%
Cn1cc(C(=O)OCC2CCN(CCNS(C)(=O)=O)CC2)c2ccccc21	-1.6%	-12&-2	.	24%
COc1cc(/C=C2\C(=N)N3N=C(N4CCOCC4)SC3=NC2=O)ccc1OC(=O)c1ccccc1	?	.	-1%	?
C/C(=N\NC(=O)c1nn(C)c(C)c1Br)c1cccc(NC(=O)c2ccoc2C)c1	-0.2%	-1	-78%	0%
COc1ccc(NC(=S)N2c3ccccc3CC2C)cc1OC (configuration not stated)	1.8%	-1	-8%	5%
CC(=O)c1ccc(S(=O)(=O)N2CCC3(CC2)CC(=O)c2ccccc2O3)cc1	5.1%	.	.	31%
CC(C)(C)NC(=O)COC(=O)c1ccccc1OCC(=O)Nc1ccc(Br)cc1	0.2%	12	-13%	0%
COCCCn1c(SCC(=O)NC(C)(C)C)nnc1-c1cccs1	?	-7	0%	-1%
COc1cc(OC)c2c(c1)OC(=O)CC2c1ccc2c(c1)OCO2 (configuration not stated)	-1.1%	-6	.	-1%
COC(=O)c1ccc(/C=C/C(=O)OCC(=O)Nc2ncc(Cl)cc2Cl)cc1	-0.3%	.	.	-8%
CCOC(=O)/C(C#N)=C/c1c(Oc2cccc(C)c2)nc2ccccn2c1=O	0.9%	-3	0%	-1%
CCOC(=O)N1CCN(C(=O)CSc2nc(=O)n3ccc(C)cc3n2)CC1	-0.3%	.	.	5%
CC1Cc2c([nH]c3ccccc23)C2c3ccccc3CN12 (configuration not stated)	?	.	4%	-26%
CCOc1ccc(NC(=O)CC2C(=O)N(c3ccccc3)C(=O)N2CCOC)cc1 (configuration not stated)	4.0%	6	-8%	6%
Nc1cccc(CN2CCCC2)c1	-0.8%	7	4%	-1%
Cc1ccc(NC(=O)CN2C(=O)c3ccccc3S2(=O)=O)c(C)c1	-0.3%	.	5%	12%
Cc1ccc(S(=O)(=O)Nc2c(NC3CCCCC3)c3ccccc3oc2=O)cc1C	2.4%	.	5%	-11%
COc1ccccc1-n1c(SCC(=O)NC2CCS(=O)(=O)C2)nc2ccccc2c1=O (configuration not stated)	?	.	.	-1%
CCOc1ccc(N(CC(=O)Nc2cccc(Cl)c2)S(=O)(=O)c2c(C)noc2C)cc1	-5.6%	-5	?	16%
COc1ccc(C(=O)OCC(=O)Nc2ccc3c(c2)OCO3)cc1S(=O)(=O)N1CCOCC1	-0.3%	.	.	7%
CCOC(=O)c1nc(C)n(-c2ccc(Cl)cc2)n1	0.6%	-1	-17%	-15%
CCN1C(=O)C(CC(=O)Nc2ccc(OC)cc2)N(Cc2ccc3c(c2)OCO3)C1=S (configuration not stated)	0.0%	1	0%	-11%
CC(=O)C(Sc1nc(-c2ccc(F)cc2)nc2c1c(=O)n(C)c(=O)n2C)C(C)=O	.	2	1%	.
COc1cccc(CNC(=O)c2nnn(CC(=O)Nc3cc(Cl)ccc3C)c2N)c1	?	.	0%&-38%	-7%
CC1(C)Cc2ccccc2-c2nc3n(c(=O)c21)CCCS3	-0.4%	5	0%	5%
Cc1nn(Cc2ccc(F)cc2)c(C)c1NC(=O)c1cnn2c1NC(c1cccs1)CC2C(F)(F)F (configuration not stated)	-0.2%	-10	3%	22%
Cc1ccccc1Nc1nnc(SCC(=O)NCc2ccco2)s1	2.7%	8	-4%	6%
COc1ccc(S(=O)(=O)Nc2cc3c4c(c2)CCC(=O)N4CCC3)cc1	-0.6%	.	.	-6%
O=C(CS(=O)(=O)c1cn(Cc2ccc(Cl)cc2)c2ccccc12)N1CCCC1	-1.6%	4	7%	5%
CCOc1cc(CNc2cccc3ccccc23)cc(Br)c1OCC(=O)NC(C)(C)C	-2.8%	4	-1%	-2%
COc1ccc(-c2csc(=Nc3ccccc3)n2CCO)cc1	1.5%	3	-24%	9%
Cc1ccc(C)c(C(=O)COC(=O)C(C)N2C(=O)C3C4CCC(C4)C3C2=O)c1 (configuration not stated)	9.1%	.	-6%	19%
CCOC(=O)CNS(=O)(=O)c1ccc(S(=O)(=O)N2CCCC2)cc1	-2.5%	-12	-2%	-3%
CCc1nc(-c2ccccc2O)n(-c2ccccc2)n1	5.3%	-2	-8%	-15%
COc1ccc(C2(c3ccc(OC)cc3)NC(=O)N(CC(=O)Nc3ccc(OC(F)F)cc3)C2=O)cc1	-0.4%	.	?	3%

Next section.
SMILES	Rango-impB inh	GLA inh pH 4.5	miR-21 FLuc	Rango release inh
Cc1cc(OCCCC(=O)NCCc2ccccn2)ccc1Cl	-2.2%	.	-10%	5%
Cc1ccc(/C(O)=C2\C(=O)C(=O)N(C)C2c2ccccc2[N+](=O)[O-])cc1 (configuration not stated)	-0.7%	.	-26%	1%
CC1=CCC2C(=O)N(c3ccc(N4CCOCC4)cc3)C(=O)C2C1 (configuration not stated)	0.0%	4	-7%	0%
Cc1ccccc1NS(=O)(=O)c1ccc2c(c1)NC(=O)CCS2	0.7%	.	8%&5%	-4%
COc1ccccc1-c1noc(CSc2nc(C)cc(=O)[nH]2)n1	-0.9%	3	-9%	13%
CCOC(=O)N1CCN(C(=O)/C(=C/c2ccc(OC)c(OC)c2)NC(=O)c2ccccc2)CC1	-2.7%	-7	-3%	29%
O=C(Nc1ccccc1F)Nc1ccccc1OC(F)F	1.7%	4	7%	2%
Cc1ccc(S(=O)(=O)CCC(=O)OCC(=O)Nc2cc(S(=O)(=O)N3CCOCC3)ccc2C)cc1	-2.0%	.	.	12%
O=C1CSc2ccc(S(=O)(=O)NCc3ccccc3Cl)cc2N1	0.0%	.	-6%	14%
CN(c1cccc(NC(=O)Nc2ccc(Cl)cc2)c1)S(C)(=O)=O	2.8%	-4	10%	8%
CCCc1cc(-c2nc(N)ncc2-c2csc(C)n2)c(O)cc1OC	-0.6%	-14	-18%	27%
CC(C)C(=O)Nc1cccc(NC(=O)c2ccc([N+](=O)[O-])cc2Cl)c1	-0.6%	2	-7%	3%
CCN(CC)C(=O)CSc1nnc(-c2cnccn2)n1-c1ccccc1	0.6%	0	-3%	-11%
O=C(CN1CCN(c2ccccc2)CC1)N1CCc2[nH]c3ccccc3c2C1	?	0	-4%	?
O=C(Nc1ccc(Cl)c(C(F)(F)F)c1)NC1CC2CCCC(C1)N2C1CC1 (configuration not stated)	-4.3%	.	.	-12%
COc1cc(/C=N\Nc2nncn2N)ccc1OC(C)=O	3.1%	.	-22%	16%
Fc1cccc(Cn2ccc(-c3ccc4c(c3)OCO4)n2)c1	-6.6%	-8	-53%	-8%
COc1ccc(C(=O)Oc2ccc(/C=N/O)cc2)cc1	2.6%	-4	-35%	3%
COCCCNC(=O)c1cc2c(-c3cccc(OC)c3)nn(C)c2s1	6.6%	.	12%&23%	15%
Cc1ccnc(NC(=O)c2cc3c(=O)oc4ccc(C)cc4c3s2)c1	1.1%	18	-2%	-7%
CC1CCN(c2ccccc2NC(=O)c2ccc([N+](=O)[O-])o2)CC1	-0.2%	.	4%	4%
CCCn1c(C(C)Nc2nc(C)cs2)nc2cc(Cl)c(Cl)cc21 (configuration not stated)	-1.2%	.	9%	12%
CCOc1ccccc1N1CCN(C(=O)CNC(=O)c2ccc(OC)c(OC)c2)CC1	0.0%	.	2%	1%
Cc1cc(NC(=O)C(C)C)ncc1NC(=O)c1cccc(F)c1	-0.8%	0	-1%	-6%
CCOc1ccccc1CN1CCN(CCCn2cccn2)CC1CCO (configuration not stated)	-0.8%	3	-1%	21%
O=C(NN1CCOCC1)c1cc(-c2ccc(Br)s2)nc2ccccc12	-0.4%	-5	3%	8%
N#CC1(C#N)C(C(N)=O)C1c1ccccc1 (configuration not stated)	?	-5	9%	?
C=CCSc1n[nH]c(-c2cccs2)n1	-0.3%	-5	-23%	9%
O=C(CCCN1C(=O)/C(=C/c2ccc3c(c2)OCO3)SC1=S)Nc1ccc(C(=O)O)cc1	?	.	-2%	?
Cc1ccc(C)c(NC(=O)CN(C)C(=O)c2ccc(S(=O)(=O)N(C)c3ccccc3)cc2)c1	3.2%	.	.	-4%
Cc1ccc(-n2ncc3c(=O)n(CC(=O)N4CCN(c5ccccc5)CC4)cnc32)cc1	?	9	-1%	-13%
CCCn1nnnc1NCc1cccc(Cl)c1	-4.2%	.	-2%	31%
COC(=O)N/N=C\C=C\c1ccc2c(c1)OCO2	0.5%	-13	-43%	-5%
COc1cc(/C=N/NC(=O)c2ccc(=O)[nH]n2)ccc1O	3.8%	0	13%	-20%
COc1cccc(NC(=O)/C=C/c2ccc([N+](=O)[O-])cc2)c1	-1.2%	-7	-13%	5%
COc1ccccc1-c1nn2c(C3COc4ccccc4O3)nnc2s1 (configuration not stated)	-0.2%	-12	-17%	1%
Cc1[nH]c2ccccc2c1C(=O)COC(=O)c1ccc[n+]([O-])c1	-0.4%	0	1%	-2%
